RecA intein inh: inhibitors of M. tuberculosis RecA intein splicing. P9WHJ3. actives 0.75% (n = 290,000). inhibition, %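 (about 9 µM by stock and volumes)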. cell-free RecA intein splicing, fluorescence; in the data active = inhibition above about 30%; inconclusive = no clear call, values can overlap the other calls;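 also: 0% = vehicle wells and 100% = reference inhibitor control wells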
Target sequence (P9WHJ3 whole entry, looked up): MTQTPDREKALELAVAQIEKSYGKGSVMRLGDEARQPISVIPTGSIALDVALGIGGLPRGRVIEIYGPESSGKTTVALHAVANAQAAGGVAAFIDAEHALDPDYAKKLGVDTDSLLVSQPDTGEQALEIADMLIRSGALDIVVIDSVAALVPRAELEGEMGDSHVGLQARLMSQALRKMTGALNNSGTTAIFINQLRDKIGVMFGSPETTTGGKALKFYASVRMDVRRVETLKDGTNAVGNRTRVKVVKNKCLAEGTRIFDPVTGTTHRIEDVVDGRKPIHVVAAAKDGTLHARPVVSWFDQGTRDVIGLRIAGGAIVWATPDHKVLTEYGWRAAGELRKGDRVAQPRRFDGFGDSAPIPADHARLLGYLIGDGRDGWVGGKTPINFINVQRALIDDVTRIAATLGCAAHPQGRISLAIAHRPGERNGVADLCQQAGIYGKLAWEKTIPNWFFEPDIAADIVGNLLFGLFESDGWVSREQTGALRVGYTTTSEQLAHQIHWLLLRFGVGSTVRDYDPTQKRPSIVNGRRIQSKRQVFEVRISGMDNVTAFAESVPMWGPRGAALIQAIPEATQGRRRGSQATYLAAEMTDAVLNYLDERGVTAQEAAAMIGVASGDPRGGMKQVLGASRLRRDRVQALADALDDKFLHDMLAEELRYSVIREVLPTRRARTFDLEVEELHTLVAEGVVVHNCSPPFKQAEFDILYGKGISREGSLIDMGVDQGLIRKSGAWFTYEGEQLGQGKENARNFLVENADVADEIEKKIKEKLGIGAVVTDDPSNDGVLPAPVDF
Arbovirus inh: arbovirus infection inhibition; arbovirus infection cell-based antiviral screen; inhibition, % at 10 µM; actives 0.37% (n = 200,000);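 active = inhibition from about 30%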;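 also: bluetongue infection of BSR cells; cell survival read as ATP light after 72 h; 0% = infected wells without compound and 100% = uninfected wells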
Mtb H37Rv: M. tuberculosis H37Rv growth inhibitors, H37Rv strain (AID 1626) | inhibition, % at 10 µM; hits with a dose series show IC50 in µM | M. tuberculosis H37Rv growth inhibition; higher % means a stronger effect | actives 0.95% (n = 220,000);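 active = confirmed in a dose series; inconclusive = inhibition above 80% but not taken into the dose series; inactive = below 80% or under 30% at every dose of the series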;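 also: bacteria incubated seven days before Alamar blue readout; 0% = bacteria only wells and 100% = bacteria with antibiotic wells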
Mtb betalactam: beta-lactam sensitization of Mtb H37Rv; M. tuberculosis H37Rv growth with meropenem, percent inhibition; hits of this screen are not shown here; inhibition, % at 25 µM; actives 0.27% (n = 330,000);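 active = about 74% or more and at least 40 points above the plate without the antibiotic, then above 30% in a dose series; inconclusive = first-round hits that could not be retested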;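 also: growth measured after seven days incubation then overnight dye step; 0% = bacteria only wells and 100% = bacteria with antibiotic; twin plates without the antibiotic show which effects depend on it; some results filed as inactive read as strong as hits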
YopH PTP inh: YopH (Yersinia) phosphatase inhibition. fluorescence Ex485/Em525. inhibition, %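 (about 10 µM by stock and volumes)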. actives 0.16% (n = 140,000);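 active = inhibition of 50% or more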;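 also: controls were vehicle for no effect and minimum signal wells for full effect; inactives centre near -20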
Arbovirus inh repeat: second read-out of Arbovirus inh, no call of its own (marks repeat the call); inhibition, %; measured here: 10K subset replicate screen; many hits read low in the repeat;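 first of two repeat runs on a subset; 0% = infected and 100% = uninfected wells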
An asterisk follows results filed as active.

`Cc1ccc(Cn2cccc(NC(=O)NC3CCCCC3)c2=O)cc1` gave RecA intein inh 6.1, Arbovirus inh 7, Mtb H37Rv -4%, Mtb betalactam 2 and YopH PTP inh -100.
Screening COc1cc(NC(=O)C(C)Oc2ccccc2)ccc1NC(=O)COc1ccccc1 (stereo unspecified) returned RecA intein inh -2.9 and Mtb betalactam 87.
COc1cc(C2C(C#N)=C(C)NC3=C2C(=O)CC(C)(C)C3)cc(OC)c1O (stereo unspecified) was read as RecA intein inh -9.9, Arbovirus inh 8, Mtb H37Rv -3%, Mtb betalactam -11 and YopH PTP inh -28.
For CCN(CC)CCCNC(=O)c1sc2ncn(CC(=O)Nc3ccc(C)c(Cl)c3)c(=O)c2c1C the results were RecA intein inh -0.8, Arbovirus inh -26, Mtb H37Rv -6% and Mtb betalactam -14.
`Cc1cc(C(=O)N2CCN(c3ccccc3)CC2)no1` gave RecA intein inh -6.7, Arbovirus inh -1, Mtb H37Rv -9%, Mtb betalactam -3 and YopH PTP inh 10.
CCC(C)(C)n1nnnc1C(c1ccc(C)cc1)N1CCCC1 (stereo unspecified) was read as RecA intein inh 2.4, Arbovirus inh 11, Mtb H37Rv 0%, Mtb betalactam 3 and YopH PTP inh -34.
CC1=C(c2ccc(C(C)C)cc2)S(=O)(=O)N=C1N1CCN(C(=O)c2ccco2)CC1 was read as RecA intein inh -0.5 and Mtb betalactam 4.
For CC(C)Cc1nc(SCC(=O)N2CCOCC2)c2c(=O)n(C)c(=O)n(C)c2n1 the results were RecA intein inh -3.1 and Mtb betalactam -8.
`C#CCSc1nc(-c2cccs2)ccc1C#N` gave RecA intein inh 3.4, Arbovirus inh -8, Mtb H37Rv 11%, Mtb betalactam -4 and YopH PTP inh -27.
Screening O=C(Nc1ccc(F)c(Cl)c1)c1cncs1 returned RecA intein inh 1.4 and Mtb betalactam -14.
CC(=O)CN1C(=O)NC(c2ccccc2)(c2ccccc2)C1=O was read as RecA intein inh -2.8 and Mtb betalactam -1.
Screening COc1ccc(S(=O)(=O)N2CC(O)CC2C(=O)OCC(=O)Nc2ccc(Cl)cn2)cc1 (stereo unspecified) returned RecA intein inh -0.3, Arbovirus inh 9, Mtb H37Rv 0%, Mtb betalactam -3 and YopH PTP inh -5.

In the list so far, these have a thiophene ring, fused or not:
For CCN(CC)CCCNC(=O)c1sc2ncn(CC(=O)Nc3ccc(C)c(Cl)c3)c(=O)c2c1C the results were RecA intein inh -0.8, Arbovirus inh -26, Mtb H37Rv -6% and Mtb betalactam -14.
`C#CCSc1nc(-c2cccs2)ccc1C#N` gave RecA intein inh 3.4, Arbovirus inh -8, Mtb H37Rv 11%, Mtb betalactam -4 and YopH PTP inh -27.

Other records follow:
Cn1c(=O)c2c(nc(NC3CCCC3)n2C)n(C)c1=O was read as RecA intein inh 1.0 and Mtb betalactam 2.
Screening COc1cccc2c1OCC(C(=O)O)C2 (stereo unspecified) returned RecA intein inh -2.6, Arbovirus inh 2, Mtb H37Rv -4% and Mtb betalactam -5.
Screening S=C(Nc1ccccc1)N1CCCCCCC1 returned RecA intein inh 0.6, Arbovirus inh 2, Mtb H37Rv -1% and Mtb betalactam -2.
Screening CC1=C(C(=O)OC2CCCCC2)C(c2ccco2)C2=C(CC(C)(C)CC2=O)N1 (stereo unspecified) returned RecA intein inh -0.9, Arbovirus inh 8, Mtb H37Rv 3%, Mtb betalactam 2, YopH PTP inh -30 and Arbovirus inh repeat -5.
For CCOc1ccc(/C=C/C(=O)c2ccccc2)cc1OC the results were RecA intein inh 5.3, Arbovirus inh 1, Mtb H37Rv >100µM*, Mtb betalactam 51 and YopH PTP inh -17.
Oc1ccccc1CNc1ccc2c(c1)OCCO2 was read as RecA intein inh -2.4, Arbovirus inh -5, Mtb H37Rv 2% and Mtb betalactam -11.
`CN(c1ccccc1)S(=O)(=O)c1cccc2ccccc12` gave RecA intein inh 4.0 and Mtb betalactam -9.
For CNC(=O)/C(C#N)=C/c1c(F)cccc1Cl the results were RecA intein inh 3.8, Arbovirus inh 3, Mtb H37Rv -9%, Mtb betalactam -2 and YopH PTP inh -43.
Screening Cc1ccc(OCc2nc(-c3ccccc3)no2)cc1 returned RecA intein inh 0.2, Mtb H37Rv 2% and Mtb betalactam 3.
For COc1ccc(OC)c(S(=O)(=O)N2CCCC(C(=O)N3CCC(C(N)=O)CC3)C2)c1 (stereo unspecified) the results were RecA intein inh -2.5 and Mtb betalactam 0.
Cc1cc(C)c(NC(=O)C2CCCN2C)c(C)c1 (stereo unspecified) was read as RecA intein inh 0.8, Arbovirus inh -7, Mtb H37Rv -9%, Mtb betalactam 4 and YopH PTP inh -160.
For Cc1ccc(C)c(/C=N/NC(=S)NCCc2ccccc2)c1 the results were RecA intein inh 7.2, Arbovirus inh 10, Mtb H37Rv 52%, Mtb betalactam 12 and YopH PTP inh 2.

Reprinted at random: two entries already listed
For Cc1ccc(C)c(/C=N/NC(=S)NCCc2ccccc2)c1 the results were RecA intein inh 7.2, Arbovirus inh 10, Mtb H37Rv 52%, Mtb betalactam 12 and YopH PTP inh 2.
`CN(c1ccccc1)S(=O)(=O)c1cccc2ccccc12` gave RecA intein inh 4.0 and Mtb betalactam -9.

(continued)
`O=C(CS(=O)(=O)Nc1ccc(F)cc1Cl)Nc1ccc(F)cc1Cl` gave RecA intein inh -2.6 and Mtb betalactam 2.
CCOC(=O)c1ccc(NC(=S)N2CCN(CCO)CC2)cc1 was read as RecA intein inh -1.9 and Mtb betalactam -5.
Screening Cc1ccc(/C=C2/Sc3ccc(C(=O)NCc4ccccn4)cc3NC2=O)cc1 returned RecA intein inh 0.4 and Mtb betalactam -1.
For CN(CC(=O)Nc1cccc(F)c1)C(=O)C1CC(=O)N(Cc2ccccc2)C1 (stereo unspecified) the results were RecA intein inh 1.0 and Mtb betalactam -2.
Screening COC(=O)NNC(=S)NCc1ccccc1 returned RecA intein inh -4.5, Arbovirus inh 0, Mtb H37Rv 0%, Mtb betalactam -3 and YopH PTP inh -16.
For Clc1cccc(CN2CCCCCCC2)c1Cl the results were RecA intein inh 2.2, Arbovirus inh 5, Mtb H37Rv 4%, Mtb betalactam 7 and YopH PTP inh -21.
Screening CC1CCN(c2c(NCc3ccc(C(=O)NCc4ccco4)cc3)c(=O)c2=O)CC1 returned RecA intein inh 1.2, Arbovirus inh 3, Mtb betalactam -1 and YopH PTP inh -7.
Cc1ccc2nc(Nc3nc(CSc4nnc(C)s4)cc(=O)[nH]3)nc(C)c2c1 was read as RecA intein inh -1.3, Arbovirus inh -30, Mtb H37Rv -7% and Mtb betalactam -2.
`CCn1c(SCC(=O)N/N=C(\C)c2ccncc2)nnc1-c1ccc(C)cc1` gave RecA intein inh 1.3, Mtb H37Rv -17% and Mtb betalactam 1.
O=C(COC(=O)/C=C/c1ccccc1)NNC(=O)c1ccc([N+](=O)[O-])cc1 was read as RecA intein inh -0.2 and Mtb betalactam -6.
Screening O=C(O)c1ccccc1-c1ccccc1C(=O)NCc1cccc(C(F)(F)F)c1 returned RecA intein inh -1.9, Arbovirus inh 0, Mtb H37Rv 4% and Mtb betalactam 3.
For Cc1cc(C)c(OCC(=O)Nc2ccc(S(=O)(=O)N3CCOCC3)cc2)c(C)c1 the results were RecA intein inh 4.8 and Mtb betalactam -5.
CC(C)(C)C(=O)Nc1ccc(Sc2ccc([N+](=O)[O-])cc2)cc1 was read as RecA intein inh 3.2, Arbovirus inh 3, Mtb H37Rv 8%, Mtb betalactam 8 and YopH PTP inh 3.
`CN(C(=O)CCCN1C(=O)c2cccc3cccc(c23)C1=O)c1ccccc1` gave RecA intein inh -0.3, Arbovirus inh -16, Mtb H37Rv 7%, Mtb betalactam 3 and YopH PTP inh -51.
CCOc1cc(NC(=S)NC)c(OCC)cc1NC(=O)c1ccco1 was read as RecA intein inh -0.1, Arbovirus inh -7, Mtb H37Rv 4%, Mtb betalactam -10 and YopH PTP inh -3.
`CCCN1C(=O)/C(=C\c2nc3ccccc3c(=O)[nH]2)c2ccccc21` gave Arbovirus inh 12 and Mtb H37Rv 42%.
For COc1cccc(NC(=O)CN(c2ccc([N+](=O)[O-])cc2)S(=O)(=O)c2ccccc2)c1 the results were RecA intein inh 3.2, Arbovirus inh 12, Mtb H37Rv 13%, Mtb betalactam -3 and YopH PTP inh -34.
For CC1CCCCN1C(=O)CN1CCC(c2nc3ccc(Cl)cc3[nH]2)CC1 (stereo unspecified) the results were RecA intein inh 10, Arbovirus inh -8, Mtb H37Rv -1% and Mtb betalactam 2.
CCOC(=O)c1cc(N)cc([N+](=O)[O-])c1 was read as RecA intein inh 1.7, Arbovirus inh 4, Mtb H37Rv 5%, Mtb betalactam 4 and YopH PTP inh -27.
Screening O=C(N=C1N=C2C=CC=CN2Cc2ccccc21)c1ccc(S(=O)(=O)N2CCCC2)cc1 returned RecA intein inh -0.3, Mtb H37Rv -9% and Mtb betalactam -2.
Screening CN(C(=O)CC1C(=O)NCCN1Cc1ccc(F)cc1Cl)C1CCCCC1 (stereo unspecified) returned RecA intein inh 2.6 and Mtb betalactam -2.
COc1ccc(NC(=O)C(C)N(c2ccc(C)cc2)S(C)(=O)=O)cc1 (stereo unspecified) was read as RecA intein inh 0.0, Arbovirus inh 6, Mtb H37Rv 1%, Mtb betalactam -5 and YopH PTP inh -25.
O=C(c1cccs1)N1CCN(S(=O)(=O)Cc2ccccc2)CC1 was read as RecA intein inh -0.6, Arbovirus inh 4, Mtb H37Rv 1%, Mtb betalactam -5 and YopH PTP inh -69.
For O=C(/C=C/c1cccs1)Nc1nncs1 the results were RecA intein inh -1.1 and Mtb betalactam -8.
Cc1ccc(NS(=O)(=O)c2cccc(C(=O)N/N=C/c3c(C)nn(-c4ccccc4)c3N3CCCC3)c2)c(C)c1 was read as RecA intein inh 1.9, Arbovirus inh 0, Mtb H37Rv 6%, Mtb betalactam -5 and YopH PTP inh -18.
COc1cc(CN(C)CCc2ccccc2)ccc1OCc1ccccc1 was read as RecA intein inh 1.0, Arbovirus inh 0, Mtb H37Rv -2%, Mtb betalactam 99 and YopH PTP inh -32.
For C=CCOc1c(CNc2ncn[nH]2)cccc1OCC the results were RecA intein inh 0.4, Arbovirus inh 6, Mtb H37Rv 0%, Mtb betalactam -3 and YopH PTP inh -4.
COc1ccc(/C=C(/C#N)S(=O)(=O)c2ccc(C)cc2)cc1 was read as RecA intein inh 0.9, Arbovirus inh 0, Mtb H37Rv 0%, Mtb betalactam 2 and YopH PTP inh -10.
Cc1nc2sc(C(c3ccc(Cl)cc3)N3CC(C)OC(C)C3)c(O)n2n1 (stereo unspecified) was read as RecA intein inh -3.2, Arbovirus inh 2, Mtb H37Rv -7%, Mtb betalactam -2 and YopH PTP inh -39.
`CC1=C(C#N)C(NC(=O)c2cccc(Cl)c2)(C(F)(F)F)C(=O)N1` (stereo unspecified) gave RecA intein inh 2.4, Arbovirus inh 4, Mtb H37Rv -2%, Mtb betalactam -3 and YopH PTP inh 15.
CN(C)c1ccc(/C=C/C(=O)c2ccc(C(C)(C)C)cc2)cc1[N+](=O)[O-] was read as RecA intein inh 7.0, Arbovirus inh 5, Mtb H37Rv 13%, Mtb betalactam 49 and YopH PTP inh -10.
Screening CCCCn1c(=O)n(Cc2cccc(F)c2)c(=O)c2c1ncn2Cc1ccco1 returned RecA intein inh 4.4, Arbovirus inh -11, Mtb H37Rv 10%, Mtb betalactam -1 and YopH PTP inh -38.
For CCCCn1c(SCC(=O)N2CCCCC2)nc2cc(S(N)(=O)=O)ccc21 the results were RecA intein inh -1.0, Arbovirus inh 4, Mtb H37Rv 9%, Mtb betalactam 0 and YopH PTP inh -40.
`O=C(Nc1cnn(Cc2ccc(Cl)c(Cl)c2)c1)c1nc2ncccn2n1` gave RecA intein inh 2.1, Arbovirus inh -26, Mtb H37Rv -5%, Mtb betalactam -3 and YopH PTP inh -18.
For CN(/N=C/c1ccc(O)cc1O)c1nc(-c2ccccc2)cc(-c2ccccc2)n1 the results were RecA intein inh 3.7, Arbovirus inh -36, Mtb H37Rv inconclusive, Mtb betalactam inconclusive and YopH PTP inh -9.
For C=C(C)COc1ccc(-c2[nH]ncc2Oc2ccccc2OC)c(O)c1 the results were RecA intein inh 2.8, Arbovirus inh -29, Mtb H37Rv -10%, Mtb betalactam 0 and YopH PTP inh -53.
COc1ccc(CC2(CO)CCN(Cc3cccn3-c3ccccn3)CC2)cc1 was read as RecA intein inh 2.8, Arbovirus inh -21, Mtb H37Rv -10% and Mtb betalactam -1.
`N#CC(C#N)=NNc1ccc(-n2ccc(C(F)(F)F)n2)cc1` gave RecA intein inh 79*, Mtb H37Rv 49% and Mtb betalactam 25.
Cc1cccc(OCCC(=O)N(C)CC(=O)Nc2cccc3ccccc23)c1 was read as RecA intein inh -1.7, Arbovirus inh -7, Mtb H37Rv 0%, Mtb betalactam -2 and YopH PTP inh -42.

Bioassay records: PubChem, several laboratories

Some of the compounds tested. The share of hits here may be higher or lower than overall.
